NS1 function inh = inhibitors of influenza NS1 protein function | S. cerevisiae slowed by influenza A NS1, growth recovery by OD600 | Potency, µM (doses to about 46.1 µM), without a hit: top-dose activity, positive = more growth | actives 0.4% (n = 270,000); active means well fitted rising curve with a large enough effect; inconclusive means small, poorly fitted or top-dose-only effect; inactive means no such curve, though single readings can be large or run the other way; further: nearly all actives have a fitted effect of over 50% in size
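Recovery from NS1-induced slow growth read by OD600 in budding yeast switched to galactose assay medium (pH 6.0, -URA) at 1:100 dilution. Compound 23 nl per well; the matching strain lacking NS1 serves as control.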
Lassa entry inh = inhibitors of Lassa virus binding or cell entry; Lassa virus pseudotype entry inhibition, cell reporter; control for the full effect not named in the record; Potency, µM (titrated, usually from 37.9 µM), inactives show at the top dose activity change, negative = inhibition, usual class: inhibitors; actives 1.2% (n = 300,000); AID 540256; active means well fitted inhibition curve with a large enough effect; inconclusive means small, poorly fitted or top-dose-only effect, or effect the other way; inactive means flat fitted curve, though single readings scatter; tested in HEK293 cells; further: on the % scale 0 is the no-effect control and ±100 the full control effect; nearly all actives have a fitted effect of over 50% in size; luciferase read-out
Cruzain inh Det = blocks cruzain activity in presence of Triton detergent; P25779; purified cruzain, Z-FR-AMC fluorescence, 0.01% Triton; Potency, µM, inactives show max response, negative = inhibition, most hits filed as inhibitors; actives 0.43% (n = 200,000);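 further: plate controls were neutral wells for no effect and buffer without enzyme for full effect; nearly all actives have a fitted effect of over 40% in size; top concentration of the series not given in the record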
Target sequence (P25779 123-467 limits assumed): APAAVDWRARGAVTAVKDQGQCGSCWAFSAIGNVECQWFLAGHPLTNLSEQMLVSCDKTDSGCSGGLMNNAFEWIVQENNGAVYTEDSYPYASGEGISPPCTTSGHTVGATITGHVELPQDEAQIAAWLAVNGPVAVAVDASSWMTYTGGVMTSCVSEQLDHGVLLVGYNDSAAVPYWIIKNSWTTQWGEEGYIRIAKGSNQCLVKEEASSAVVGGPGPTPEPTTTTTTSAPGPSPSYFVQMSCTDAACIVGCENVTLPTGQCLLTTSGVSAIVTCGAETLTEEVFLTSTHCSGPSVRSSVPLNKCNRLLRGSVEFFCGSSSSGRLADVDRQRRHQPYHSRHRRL
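Sodium acetate buffer (100 mM, pH 5.5) containing 5 mM DTT and 0.01% Triton X-100 hosted 1.5 nM cruzain and test compound for 15 min at room temperature. Cleavage of 2 uM Z-FR-AMC was then tracked by fluorescence.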
2A StopGo = FMDV 2A StopGo reporter, luciferase signal. actives 1.2% (n = 410,000). human cells with a luciferase reporter of 2A StopGo recoding; control for the full effect not named in the record. AID 1159524. Potency, µM (top dose mostly 57.9 µM), for inactives: at the top dose signal change, negative = less light; active = well fitted falling curve with a large enough effect; inconclusive = small, poorly fitted or top-dose-only effect; inactive = no such curve, though single readings can be large or run the other way; tested in HEK293T cells; further: on the % scale 0 is the no-effect control and ±100 the full control effect; nearly all actives have a fitted effect of over 45% in size; luciferase light after 4 h
MARV entry inh = blocks Marburg virus binding to or entry into cells | Marburg virus pseudotyped entry inhibition, cell reporter; control for the full effect not named in the record; about a third of the inactives were read at about 46 µM | Potency, µM (doses to about 37.8 µM), without a hit: at the top dose activity change, negative = inhibition, actives largely listed as inhibitors | actives 1.8% (n = 300,000) | AID 540276; active = well fitted inhibition curve with a large enough effect; inconclusive = small, poorly fitted or top-dose-only effect, or effect the other way; inactive = flat fitted curve, though single readings scatter; tested in HEK293 cells; about a fifth of its hits are not listed in these tables; further: on the % scale 0 is the no-effect control and ±100 the full control effect; luciferase read-out
SARS PLP yeast = SARS-CoV PLP inhibition in yeast | actives 0.19% (n = 330,000) | Potency, µM (top dose mostly 32.9 µM), inactives show top-dose activity, positive = growth rescue | AID 485353 | S. cerevisiae expressing SARS-CoV PLpro, growth rescue; control for the full effect not named in the record; active means well fitted rising curve with a large enough effect; inconclusive means small, poorly fitted or top-dose-only effect; inactive means no such curve, though single readings can be large or run the other way; further: 0% is about no effect; nearly all actives have a fitted effect of over 55% in size; growth read by luminescence after 48 h
RE007 growth inh = less growth of the S. pombe RE007 Vpr strain; Potency, µM (titrated, usually from 92.2 µM), without a hit: at the top dose activity change, negative = less growth; actives 0.21% (n = 360,000); S. pombe RE007 Vpr strain, BacTiter-Glo ATP luminescence, 24 h; control for the full effect not named in the record; active = well fitted falling curve with a large enough effect; inconclusive = small, poorly fitted or top-dose-only effect; inactive = no such curve, though single readings can be large or run the other way;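 further: on the % scale 0 is the no-effect control and ±100 the full control effect; nearly all actives have a fitted effect of over 50% in size; the assay follows cell death caused by Vpr and the record does not say whether a fall means rescue or toxicity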
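Fission yeast RE007 carrying one integrated HIV-1 vpr copy, seeded at OD 0.01 in PMG+AL medium with 23 nL pinned compound. Grown 24 h at 30 degrees; viability read by BacTiter-Glo luminescence after 5 min.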
Cruzain inh noDet = inhibitors of Trypanosoma cruzi cruzain without detergent; actives 2.3% (n = 200,000); Potency, µM, inactives show max response, negative = inhibition, hits mostly inhibitors; P25779; purified cruzain, Z-FR-AMC fluorescence, no detergent; AID 1476;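 further: plate controls were enzyme without inhibitor for no effect and buffer without enzyme for full effect; nearly all actives have a fitted effect of over 40% in size; top concentration of the series not given in the record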
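Detergent-free condition (0.00005% Triton X-100) in acetate buffer pH 5.5 with DTT. 1.5 nM enzyme and compound were pre-mixed 15 min, then 2 uM Z-FR-AMC substrate added; reaction progress from fluorescence change between first and third reads (60 s).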
* hit, by the source's call; ? = inconclusive; . = not tested or not shown; & = joins results of further samples; [ ] = another dose, or the depositor's remark. Unless noted, the call rests on the fitted dose curve; in most records, active means well fitted curve in the direction sought with a large enough effect; inconclusive means small, poorly fitted or top-dose-only effect, or another doubt; inactive means no such curve, though single readings can be large; an effect the other way counts as inactive or inconclusive. Potency means the concentration at half of the fitted maximal effect.

Under each structure: NS1 function inh	Lassa entry inh	Cruzain inh Det	2A StopGo	MARV entry inh	SARS PLP yeast	RE007 growth inh	Cruzain inh noDet
> CCOC(=O)Cc1cc(=O)[nH]c(/N=C(/NC(=O)c2ccccc2)Nc2ccccc2C(F)(F)F)n1
  12%	-15%	7.6%	10%	16%	2%	4%	?
> O=C(CCCc1cccs1)NCCc1c[nH]c2ccccc12
  0%	.	.	22%	.	-2%	-2%	.
> COc1ccc(-n2nc(C(=O)NCC(=O)Nc3ccccn3)c3ccccc3c2=O)cc1Cl
  -1%	-26%	-7.5%	-3%	4.1µM*	-7%	22%	-5%
> O=C(NCC1CCCO1)c1ccccc1NS(=O)(=O)c1cccs1 (stereo not given)
  2%	11%	.	-1%	-2%	1%	6%	.
> CC(C)c1ccc(N(C(=O)c2snc(C(N)=O)c2N)C(C(=O)NCC2CCCO2)c2ccc(N(C)C)cc2)cc1 (stereo not given)
  19%	?	.	18µM*	?	?	-8%	.
> O=[N+]([O-])c1ccc(N/N=C/c2cccc(O)c2O)c(S(=O)(=O)N2CCOCC2)c1
  13%	.	.	?	.	-1%	10%	.
> CCOc1ccc(NC(=O)CCN2CCN(c3ccccc3OC)CC2)cc1
  ?	?	4.5%	?	20%	2%	?	1%
> CCCCCSc1nnc(-c2ccccc2N)c(=O)[nH]1
  -8%	1%	-1.3%	2%	?	-78%	1%	0%
> O=c1c2c(nc3n1CCCCC3)sc1c(O)cccc12
  -105%	?	-6.5%	-45%	?	-9%	-3%	-15%
> C=CCn1cccc(C(=O)Nc2ccc(SC)cc2)c1=O
  -12%	.	.	-10%	.	-7%	8%	.
> N#Cc1cc(Oc2ccc3ccccc3c2)c(-n2nnc3ccccc32)cc1C#N
  9%	-14%	0.9%	-14%	?	7%	-13%	?
> O=c1c(-c2ccc(Br)cc2)[n+]([O-])c2ccccc2n1OCc1ccccn1
  2%	2%	.	-5%	-2%[46.1 µM]	1%	6%	.
> C/C(CC(C)C)=N\Oc1nc(C)cc(C)n1
  3%	2%[46.1 µM]	.	11%	19%[46.1 µM]	3%	5%	.
> O=C(c1cc(-c2ccco2)on1)N1CCc2ccccc2C1
  -6%	1%	-12%	70%[activator]	12%	2%	-4%	1%
> C=C(C)[C@H]1CC=C(C)C(=O)C1
  .	.	3.7%&4.5%	-2%	.	0%	-4%	-14%&-9%
> Cc1nnc(SCC(=O)N2CCCC2)n(N)c1=O
  .	8%	.	-10%	10%[46.1 µM]	-4%	6%	.
> CNc1nc(N(C)C)nc(N(C)C)n1
  -3%	.	1.9%	-23%	.	-2%	-3%	0%
> COc1cc(C2c3c(oc4ccc(F)cc4c3=O)C(=O)N2Cc2ccc3c(c2)OCO3)ccc1O (stereo not given)
  .	0%[46.1 µM]	-3.4%	15%	13%[46.1 µM]	.	.	13%
> O=C(O)c1ncn(Cc2ccccc2)c1C(=O)O
  1%	9%	-10%	-9%	?	2%	-8%	-1%
> CCc1ccc(CN2CCN(S(=O)(=O)Cc3ccccc3)CC2)cc1
  0%	?	-0.2%	-11%	-1%	5%	9%	-9%
> CCOC(=O)c1sc(-c2cccs2)nc1C
  .	?	.	52%[activator]	11%	-1%	-10%	.
> NC(=O)c1cc2cc(Cl)ccc2oc1=O
  -12%	2%	-4.3%	-2%	-19%	-3%	?	-1%
> N#Cc1ccc(NC2c3ccccc3CC2O)cc1 (stereo not given)
  .	8%[46.1 µM]	.	?	?	.	3%	.
> Cc1ccc2cccnc2c1N
  .	?	.	-1%	3%	?	-15%	.
> COc1ccc(NC(=O)CSc2nnc(CCC(=O)O)c(=O)n2N)cc1
  -3%	.	.	0%	.	-1%	4%	.
> O=S(=O)(c1ccc(NC(=S)NC2CCCC2)cc1)N1CCCC1
  1%	?	.	45%[activator]	?	1%	?	.
> COc1cccc(NC(=O)CN(C)C(=O)CC2CC3CCC2C3)c1 (stereo not given)
  .	-24%	.	18%	9%	-1%	1%	.
> O=C(COC(=O)c1ccncc1)Nc1cc(Cl)c(Cl)cc1Cl
  -3%	.	0.1%	.	1%	2%	.	-23%
> CCOC(=O)N1CCN(CC(O)c2ccc3cc[nH]c3c2)CC1 (stereo not given)
  7%	.	0.5%	0%	.	-4%	-5%	-9%
> CCCN1Cc2cccc(C(=O)Nc3ccc4c(c3)OCCO4)c2C1=O
  -94%	.	-5.8%	-20%	.	-9%	16%	28%
> COC1CCCN(Cc2c(C(=O)N3CCN(C4CCCCC4)CC3)nc3ccccn23)C1 (stereo not given)
  16%	.	.	27%	.	11%	-9%	.
> C/C(=N/Nc1nc(C)cc(C)n1)c1ccc(Br)cc1
  -16%	-10%[46.1 µM]	.	5%	?	3%	-3%	.
> COc1ccc2oc(=Nc3ccccc3)c(-c3nc4ccccc4[nH]3)cc2c1
  -1%	?	-4.1%	28%	-6%	-14%	.	5%
> CC1CCCCC1NC(=O)CSc1nnc(CN2CCOCC2)n1C (stereo not given)
  3%	10%	9.5%	-14%	10%	3%	?	-7%
> Nc1nn2cc(-c3ccc(Br)cc3)nc2c2ccccc12
  -67%	.	.	31%[activator]	.	-18%	?	.
> COC(=O)c1c(C(=O)OC)c2cc(C)ccn2c1Cl
  -13%	-10%	-6.5%	0%	26%	2%	-6%	1%
> CCOC(=O)C1CCN(C(=O)Cn2ncc3c([nH]c4ccccc43)c2=O)CC1
  -1%	9%&5%[46.1 µM]	.	-29%&1%	22%&22%[46.1 µM]	.	-9%	.
> c1ccc(-c2oc3ncnc(N4CCOCC4)c3c2-c2ccccc2)cc1
  -16%	.	-0.2%	.	1%	3%	.	-4%
> CC1(C)CC(=O)C=C(Nc2ccc(F)c(Cl)c2)C1
  0%	.	.	?	.	0%	-1%	.
> CCCOc1ccccc1C1CC(=O)Nc2cc3c(cc21)OCCO3 (stereo not given)
  -59%	?	-7.8%	22µM*	2.8µM*	-2%	-2%	-17%

Retrieved by structure from above (3):
Under each structure: NS1 function inh	Lassa entry inh	Cruzain inh Det	2A StopGo	MARV entry inh	SARS PLP yeast	RE007 growth inh	Cruzain inh noDet
> COc1ccc(NC(=O)CSc2nnc(CCC(=O)O)c(=O)n2N)cc1
  -3%	.	.	0%	.	-1%	4%	.
> COc1ccc2oc(=Nc3ccccc3)c(-c3nc4ccccc4[nH]3)cc2c1
  -1%	?	-4.1%	28%	-6%	-14%	.	5%
> CCOC(=O)C1CCN(C(=O)Cn2ncc3c([nH]c4ccccc43)c2=O)CC1
  -1%	9%&5%[46.1 µM]	.	-29%&1%	22%&22%[46.1 µM]	.	-9%	.

(further entries)
Under each structure: NS1 function inh	Lassa entry inh	Cruzain inh Det	2A StopGo	MARV entry inh	SARS PLP yeast	RE007 growth inh	Cruzain inh noDet
> COc1ccc2cc(S(=O)(=O)N3CCCCC3)ccc2c1S(=O)(=O)N1CCCCC1
  -10%	-21%	-4.4%	?	?	3%	0%	29%
> CCCCC1=CC2=CC(=O)C(C)(OC(=O)CC)C(=O)C2=CN1Cc1ccccc1 (stereo not given)
  3%	.	.	-22%	.	-6%	-6%	.
> CC(C)C(C)(C#N)NC(=O)CSc1nc2scc(-c3ccccc3)c2c(=O)[nH]1 (stereo not given)
  2%	3%	-4.8%	-29%	9%	4%	-5%	1%
> CC(C)(C)CN1C(N)=NC[C@@H]1Cc1ccc(O)cc1
  0%	.	.	-21%	.	1%	5%	.
> CN(C)S(=O)(=O)c1ccc(NC(=S)NC(=O)Cc2ccccc2)cc1
  .	23%[46.1 µM]	.	-17%	-1%[46.1 µM]	-2%	7%	.
> CCOC(=O)c1n[nH]c(=O)c2ccccc12
  .	26%[46.1 µM]	.	-12%	2%[46.1 µM]	-4%	0%	.
> O=C(N/C(=C/c1ccc([N+](=O)[O-])cc1)C(=O)N1CCOCC1)c1ccco1
  15%	0%	.	-4%	?	7%	0%	.
> COc1ccc(CCNC(=O)CCS(=O)(=O)c2ccc3c(c2)NC(=O)CS3)cc1OC
  -2%	.	.	2%	.	-2%	-8%	.
> COC(=O)N/N=C/c1cn(CCOc2ccccc2)c2ccccc12
  -5%	?	.	11%	?	-6%	-7%	.
> Clc1ccccc1CNCCCSc1nnnn1-c1ccccc1
  .	-3%[46.1 µM]	-1.2%	7%	?	.	.	-8%
> O=C(CSc1nnc(CNC(=O)c2cccc(C(F)(F)F)c2)o1)NC1CCCC1
  8%	-10%	.	-12%	?	2%	-13%	.
> COCCOC(=O)C1=C(C)N=C2SCCC(=O)N2C1/C=C/c1ccccc1 (stereo not given)
  -2%	?	-6.5%	-14%	-6%	1%	0%	14%
> Cc1cc2nc(C)c3c(n2n1)CCC3
  .	41%	.	-10%	-10%[46.1 µM]	-1%	-12%	.
> CCOCc1nnc(NC(=O)c2cc(Cl)ccc2OC)s1
  -88%	12%	-2.0%	9%	-8%	7%	-9%	?
> CCOc1ccc(CNc2nc3nc(C)c(Cc4ccccc4)c(=O)n3[nH]2)cc1
  .	22%[46.1 µM]	-1.4%	-9%	?	.	.	-4%
> COc1ccc(OCC(=O)NNC(=O)c2ccc3c(=O)n4c(nc3c2)CCC4)cc1
  3%	2%[46.1 µM]	.	7%	-1%[46.1 µM]	20%	6%	.
> COc1ccc(Cl)cc1-c1nc(SCC(=O)NC(C)C)n[nH]1
  .	?	.	-9%	-2%[46.1 µM]	1%	11%	.
